# Vaccinia pol inh: inhibitors of vaccinia virus processive DNA synthesis (E9 polymerase); in vitro processive DNA synthesis, absorbance read-out; active compounds read low; some inactives read as strong as hits; 0.94% of 46,000 active; normalized absorbance, % (test concentration not listed);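 active = replicate mean up to 90% and picked by the depositor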;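 also: 100% = median of the test wells of a plate; 100 nL library stock went into each well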
# Numbers without * were called inactive.
SMILES	Vaccinia pol inh
N#Cc1cc2c(nc1SCC(N)=O)CCCC2=O	102
CC(NC(=O)C1CCCN(S(=O)(=O)N2CCCCC2)C1)C12CC3CC(CC(C3)C1)C2 (stereo not given)	89
CS(=O)(=O)N1CCSC1c1ccc(Cl)cc1 (stereo not given)	103
O=S(=O)(c1ccc(F)cc1)N1CC=C(c2ccccc2)CC1	121
N#Cc1c(N)nc(C(F)(F)F)nc1-c1ccccc1	94
COc1ccc2c(c1)N(C)/C(=C1/OC(=S)N(C)C1=O)S2	89
CCOc1ccc(C(=O)C[n+]2ccsc2N)cc1	99
Cc1ccc(OCC(=O)NC(Cc2c[nH]c3ccccc23)C(=O)O)cc1 (stereo not given)	94
OCCOc1ccccc1OCCBr	121
CC(CCc1ccccc1)NC(=O)c1ccc(CS(=O)(=O)c2ccc(Br)cc2)o1 (stereo not given)	92
CC(C)[C@]1(O)[C@@H](OC(=O)c2ccc[nH]2)[C@@]2(O)[C@@]3(C)C[C@]4(O)O[C@@]5([C@H](O)[C@@H](C)CC[C@]35O)[C@@]2(O)C41C	100
O=C(O)c1sc2cc(Cl)ccc2c1Cl	90
COc1ccc(OC)c2[nH]c(=O)c(CCNC(=O)/C=C\c3ccc4c(c3)OCO4)cc12	104
CC(C)(Oc1ccc(Cl)cc1)C(=O)OCC(=O)Nc1ccc(Cl)cc1	95
Cc1ccc(NC(=O)C(OC(=O)c2ccccn2)c2ccccc2)cc1Cl (stereo not given)	102
CCOC(=O)CSc1ncnc2sc(C)c(C)c12	98
Fc1cccc(N=Cc2ccc3c(c2)OCO3)c1	86
CSc1ccccc1C(=O)O	100
COc1ccc(NC(=O)CC2CS(=O)(=O)CC2CC(=O)Nc2ccc(OC)cc2)cc1 (stereo not given)	101
NC(=O)C1CC2C=CC1C2 (stereo not given)	98
COc1ccc(Cl)cc1C(=O)NN1C(=S)NC(C)(C)C=C1C	100
Cc1ccc2nsnc2c1NC(=O)Cc1ccc(Cl)cc1	100
CCCCC[C@H](O)/C=C/[C@H]1[C@H](O)CC(=O)[C@@H]1CCCCCCC(=O)O	99
Cc1ccccc1Nc1nnc(C)c(=O)n1N	100
O=C(Cc1ncc(C(F)(F)F)cc1Cl)N1CCN(c2ccc(F)cc2)CC1	114
Cc1nc(NCc2ccco2)c2cc(-c3ccccc3)sc2n1	100
CCN1CCN(C(=O)c2ccc(I)cc2)CC1	106
CCOC(=O)c1c(-c2ccccc2)oc2ccc(O)c(CN3CCN(C)CC3)c12	88
CCc1cc2c(C)cc(=O)oc2cc1OCC(=O)NCC1CCCCC1	101
Cc1sc2ncn(-n3cccc3)c(=O)c2c1-c1ccccc1	80
O=C(O)c1ccc(CO)cc1	104
OCc1nc2ccccc2n1Cc1ccccc1	101
O=C(CN1C(=O)CSc2ccc(C(F)(F)F)cc21)Nc1cccc(C(F)(F)F)c1	92
CC(C)Oc1ncc(C(F)(F)F)cc1Cl	98
O=C(CCn1nc(-c2ccc(Cl)cc2)c2ccccc2c1=O)NCCN1CCOCC1	100
O=C(CSc1nc(O)cc(=O)[nH]1)N1c2ccccc2Sc2ccccc21	100
O=C(Cn1cnc2c(nnn2-c2cccc(Cl)c2)c1=O)NC1CCCCC1	98
CCOC(=O)COc1cccc2c1CCN(Cc1ccccc1)C2=O	99
O=C(Nc1ccccc1O)c1ccccc1	98
Cc1nn(S(=O)(=O)N(C)C)c(C)c1Br	100
Cc1cc(Cc2ccc(N)c(C)c2)ccc1N	99
O=C(c1cc(=O)c2ccccc2o1)N1CCN(c2ccccc2)CC1	100
NC(=O)COC(=O)COc1ccc(Cl)cc1Cl	102
CN(C(=O)Cn1ncc2c1-c1ccccc1OC2)C1CCCCC1	98
O=C(/C=C/c1ccco1)Nc1ccc(S(=O)(=O)N2CCCC2)cc1	100
N#CC(Sc1ccccc1)c1ccc(Cl)cc1 (stereo not given)	105
CCCNC(=O)[C@H]1O[C@@H]1C(=O)N[C@H](C(=O)N1CCC[C@H]1C(=O)OC)[C@@H](C)CC	100
COc1ccc(N2CCN(CCNC(=O)c3nnc(-c4ccc5c(c4)OCO5)o3)CC2)cc1	93
CCOC(=O)c1cc(-c2cc(OC)ccc2OC)no1	100
CC1=C(C(=O)Nc2ccc(CC(=O)N3CCC4(CC3)OCCO4)cc2)SCCO1	94
CCNc1nc(SCC(=O)OCC)nc2sc3c(c12)CCC(C)C3 (stereo not given)	94
CCN1CCCC1CNC(=O)C1c2ccccc2C(=O)N(CC(C)C)C1c1cccs1 (stereo not given)	97
O=C(O)/C=C/c1ccc(Cl)c(Cl)c1	98
CCOC(=O)CN1CC23C=CC(O2)C(C(=O)Nc2ccc(CC)cc2)C3C1=O (stereo not given)	105
CC1CC(C)CN(C(=O)COc2ccccc2)C1 (stereo not given)	100
CC1CCCC(C)N1C(=O)COC(=O)c1cccc(Br)c1 (stereo not given)	102
Cc1csc(NC(=O)c2cc3c(s2)CCC3)n1	104
CCCc1ccc(OCc2ccc(C(=O)n3cc(Br)cn3)cc2)cc1	100
COc1ccc(C(O)c2cccs2)cc1OC (stereo not given)	100
CC1(C)O[C@@H]2CC3C4CCC5=CC(=O)C=C[C@]5(C)[C@@]4(F)[C@@H](O)C[C@]3(C)[C@]2(C(=O)CO)O1 (stereo not given in full)	100

# Later entries.
SMILES	Vaccinia pol inh
O=S(=O)(c1cccs1)N1CCc2ccccc21	98
CCOc1ccc(C(=O)Nc2nc3c(OC)cccc3s2)cc1	106
O=C(CC(NCc1ccccc1)C(=O)O)c1ccc(Br)cc1 (stereo not given)	100
COc1cc(OC)c(/C=N/O)cc1Br	96
C1=C(CCNc2nc3ccccc3n3nnnc23)CCCC1	99
CCOc1ccc(C(=O)CSCC(=O)O)cc1	104
CC(C)C(NC(=O)c1ccccc1F)C(=O)O (stereo not given)	104
O=c1[nH]c(SCc2cccc(C(F)(F)F)c2)nc2c1cnn2-c1ccccc1	101
N#CC(C(=O)N1CCCC1)C(=S)Nc1ccccc1Cl (stereo not given)	104
Cc1ccc(C(C)C)c(OCCN)c1	101
COc1ccc2c(c1)sc1ncc(C(=O)NCC(C)c3ccccc3)c(=O)n12 (stereo not given)	94
O=C(CCn1cccc1)N1CCc2ccccc21	90
O=C1/C(=C/c2cccnc2)CCCC/C1=C\c1cccnc1	112
CCN(CCCNc1ncnc2nc[nH]c12)c1cccc(C)c1	90
OC(COCC1CC=CCC1)CN(Cc1ccccc1)Cc1ccccc1 (stereo not given)	98
COc1ccc(OCCCC(=O)Nc2ccc(S(=O)(=O)Nc3nccs3)cc2)cc1	100
CCc1nnc(NC(=O)/C=C/c2ccccc2)s1	96
CCCCn1c(CNC(=O)c2ccccc2)nc2ccccc21	94
Nc1sc2c(c1C(=O)Nc1cccc(Cl)c1)CCCCC2	99
O=C(CS(=O)(=O)c1ccccc1Cl)N1CCOCC1	86
O=C(NC=Nc1cccnc1)c1cccc(COCC(F)(F)F)c1	100
O=C(NCCc1c[nH]c2ccccc12)C1CCCCC1	100
Cc1ccc(S(=O)(=O)N2CC=C(C(=O)NC3CCCC3)CC2)cc1	94
Cc1nn(C)c(C)c1S(=O)(=O)N1CCN(c2ccccc2)CC1	101
O=S(=O)(Nc1ccccn1)c1ccc(Cl)cc1	102
COc1cc(C)c2c(c1)CCC1C2CCC2(C)C(O)CCC12 (stereo not given)	103
O=C(Cc1ccccc1)Oc1cccc2cccnc12	100
CCOC(=O)/C=C1\NC(C)(C)Cc2cc(OC)c(O)cc21	99
O=C(Cc1ccc(Cl)cc1)OCC(=O)c1cc2ccccc2o1	104
CCc1cc2c(C)cc(=O)oc2cc1OCC(=O)NC1CCCCC1	101
COc1ccc(/C=C/C(=O)OCC(=O)Nc2cccc(C(F)(F)F)c2)cc1	97
CCOC(=O)c1c(N)sc2c1CCC2	98
O=C(CCSc1nc(-c2ccco2)cc(C(F)(F)F)n1)N1CCCc2ccccc21	101
CC1=C(C(=O)O)N2C(=O)[C@@H](NC(=O)[C@H](N)C3=CCC=CC3)[C@H]2SC1	99
COc1cc(C2NN=C3C4CCN(CC4)C32)cc(OC)c1OC (stereo not given)	97
O=C(c1ccc2ncsc2c1)N1CCOCC1	89
Cc1ccc(C2=NS(=O)(=O)N(C)C(C(=O)N(C)c3ccccc3)=C2)cc1	74
O=C1C2C(C(=O)N1Cc1ccc(F)cc1)C1C=CC2C12CC2 (stereo not given)	100
Nc1nnnn1/N=C\c1ccc(O)cc1	100
CC1CCCC(C)N1C(=O)COC(=O)c1c2c(nc3ccccc13)CCC2 (stereo not given)	104
O=C(Nc1ccc(F)cc1)C1CCCO1 (stereo not given)	107
COC(=O)c1cc(=O)n(C2CCCCC2)c(=NC2CCCCC2)s1	83
Cc1ccc(C)[n+](CNC(=O)c2ccc(Cl)cc2Cl)c1	91
C=CC[N+]1(C)Cc2ccccc2C1	100
O=S(=O)(c1cccc(C(F)(F)F)c1)c1cnc2ccccc2n1	106
CN1/C(=C\C=Nc2ccc(C(=O)O)cc2)C(C)(C)c2ccccc21	97
COc1cccc(-c2cc(C(=O)NCC3CCCO3)on2)c1 (stereo not given)	98
COc1cccc(CNC(=O)c2cnn3c4c(cnc23)CCCCC4)c1	98
CCCNC(=O)Nc1ccc(OC(F)(F)F)cc1	94
CC(N)(C(=O)O)c1cccc(OCc2ccccc2F)c1 (stereo not given)	99
CC1(C)CC(=O)C(CC2=C(O)CC(C)(C)CC2=O)C(=O)C1	108
Cc1cc(Br)ccc1N1C(=O)CC(=O)NC1=S	100
CC(C)C(=O)Nc1nn2c(-c3ccco3)nnc2s1	105
CCOC(=O)C(N)CSC1CCCCO1 (stereo not given)	99
CN1CCN(C(c2ccccc2)c2ccc(Cl)cc2)CC1 (stereo not given)	103
CCOC(=O)c1ccc(NC(=O)CSc2ccc(Cl)cc2)cc1	101
Cc1ccnc(Nc2nc3ccccc3s2)n1	106
COC(=O)c1cc2c(s1)CCC2	92
Cc1c(C(=O)O)oc2ccc(S(=O)(=O)NCCC(C)C)cc12	102
CCC(C(=O)N1c2ccccc2Sc2ccc(C(F)(F)F)cc21)N1C(=O)c2ccccc2C1=O (stereo not given)	99

# Carrying on:
SMILES	Vaccinia pol inh
Cc1cc(C(=O)OCC(=O)NC2CCCC(C)C2C)c(C)o1 (stereo not given)	100
CCOC(=O)C(C#N)C(c1cccnc1)c1[nH]c(C)nc1O (stereo not given)	101
N#Cc1ccc(Oc2ccc(Cl)cc2Cl)cc1	112
C=CCN=C(SC)N1CCN(C(=NCC=C)SC)CC1	100
CSc1sc2ccccc2[n+]1C	102
O=C1C2CCCCC2=NN1c1ccccc1 (stereo not given)	100
O=C1CC(C(=O)NCc2ccc(F)cc2)C2=C(CCCC2=O)N1 (stereo not given)	96
O=C(c1ccc(F)cc1)C1CCN(Cc2cn[nH]c2-c2ccccc2)CC1	96
CN(C)/C=N/C(=S)NC1CC2C=CC1C2 (stereo not given)	106
Cc1cccc(NC(=O)Cn2c(O)c(N=N)c3ccccc32)c1	99
COc1ccc(/C=C/C(=O)CC(=O)c2ccccc2O)cc1	100
O=C(COC(=O)c1cnc(Cl)c(Cl)c1)NC1CC1	100
Cc1sc(NC(=O)/C=C/c2ccco2)c(C(N)=O)c1C	111
Cc1ccc(-n2c(=O)c3sccc3n(CC(=O)NCC3CCCO3)c2=O)cc1F (stereo not given)	99
Cc1ccc(NC(=O)CCc2c(C)nc3c4c(C)cc(C)nc4nn3c2C)cc1	96
CCOC(=O)CSc1nc2ccccc2n1C(=O)Nc1cccc(Cl)c1	97
Cc1noc(/C=C/N(C)C)c1S(=O)(=O)N1CCc2ccccc21	100
O=S(=O)(/C=C/c1ccccc1)n1ccnc1	99
O=C(O)c1cccc(NS(=O)(=O)/C=C/c2ccccc2)c1	98
C=C1N(Cc2ccccc2)C(=O)OC1(C)C	100
NN(CCO)C(=S)NCc1ccc(Cl)cc1	98
O=C(O)C1CC2CC3CC(C2)CC1(O)C3 (stereo not given)	96
Cc1sc2nc[nH]c(=S)c2c1-c1ccccc1	104
O=C(NCc1nc(-c2ccc(C(F)(F)F)cc2)no1)Nc1ccc(F)cc1F	94

# Copied from the results shown for reference:
SMILES	Vaccinia pol inh
O=C(COC(=O)c1cnc(Cl)c(Cl)c1)NC1CC1	100
Cc1sc(NC(=O)/C=C/c2ccco2)c(C(N)=O)c1C	111
Cc1ccc(-n2c(=O)c3sccc3n(CC(=O)NCC3CCCO3)c2=O)cc1F (stereo not given)	99
Cc1ccc(NC(=O)CCc2c(C)nc3c4c(C)cc(C)nc4nn3c2C)cc1	96
CCOC(=O)CSc1nc2ccccc2n1C(=O)Nc1cccc(Cl)c1	97
Cc1noc(/C=C/N(C)C)c1S(=O)(=O)N1CCc2ccccc21	100
O=S(=O)(/C=C/c1ccccc1)n1ccnc1	99
O=C(O)c1cccc(NS(=O)(=O)/C=C/c2ccccc2)c1	98
C=C1N(Cc2ccccc2)C(=O)OC1(C)C	100
NN(CCO)C(=S)NCc1ccc(Cl)cc1	98
O=C(O)C1CC2CC3CC(C2)CC1(O)C3 (stereo not given)	96

# Next part:
SMILES	Vaccinia pol inh
O=C(c1cnn(-c2ccccc2)c1-n1cccc1)N1CCC2(CC1)OCCO2	93
Cc1c2cnn(-c3ccccc3)c(=O)c2c(C)n1CCCC(=O)NCCc1ccccc1	104
O=C(c1ccccc1)n1ccc2ccccc21	102
CCN1C(=O)c2cccc3c(NC(=O)C(C)(C)C)ccc1c23	101
Cc1cc(N2CCOCC2)nc2ccc(NC(=S)N3CC(C)CC(C)C3)cc12 (stereo not given)	105
O=C(O)CCn1nc(Nc2ccccc2)n(-c2ccccc2)c1=S	99

# From PubChem

# These rows are one share of the data; count on the stated rates, not on these rows.
